# Source: PubChem BioAssay (Broad Institute)
# Vaccinia stage: blocks a specific stage of Vaccinia orthopoxvirus infection, primary screen, cell-based, single point; Vaccinia-infected cells, mCherry/Venus stage reporter fluorescence; active compounds read low; some inactives read as strong as hits; activity change (mCherry), % (no concentration beside the values); 89,000 compounds, 0.01% hits;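 active means mCherry past -33% and 40 or more points under the early reporter, replicates agreeing; inconclusive means past -33% without that gap or agreement; tested in A549 cells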;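 further: scaled between vehicle wells and reference inhibitor wells; 23 nL library stock went into each well; one replicate is shown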
# Vaccinia stage Venus: second read-out of Vaccinia stage, no call of its own (marks repeat the call); activity change (Venus), %; measured here: Venus reporter, other viral stage;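 negative = less Venus signal; first of two replicates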
# An asterisk follows results filed as active; ? = inconclusive; . = not tested or not shown; & = joins results of further samples. This is a subset. The share of hits here may be higher or lower than overall.
SMILES,Vaccinia stage,Vaccinia stage Venus
CCNC(=O)C[C@@H]1C=C[C@H](NC(=O)C2CCOCC2)[C@H](CO)O1,7.9,4.4
C#Cc1ccc([C@@H]2C=C(C(=O)NCc3ccccc3)O[C@H](OCCCCO)C2)cc1,5.1,6.0
C[C@@H]1CN([C@H](C)CO)C(=O)CCCn2cc(nn2)CO[C@@H]1CN(C)C(=O)Nc1ccc(C(F)(F)F)cc1,6.6,4.1
COc1ccc(NC(=O)Nc2ccc3c(c2)C(=O)N([C@H](C)CO)C[C@H](C)[C@H](CN(C)C(=O)c2ccccc2)OCCCC[C@H](C)O3)cc1,11.0,15.1
Cc1noc(C)c1NC(=O)N(C)C[C@H]1Oc2ccc(NC(=O)c3ccncc3)cc2CC(=O)N([C@@H](C)CO)C[C@H]1C,4.0,2.8
C[C@H](CO)N1C[C@H](C)[C@H](CN(C)C(=O)C2CCC2)Oc2ncc(/C=C/c3ccccc3)cc2C1=O,0.3,4.5
CCCC#Cc1cnc2c(c1)C(=O)N([C@@H](C)CO)C[C@@H](C)[C@@H](CN(C)S(=O)(=O)c1cccc(OC)c1)O2,-12.8,-12.8
Cc1cccc(S(=O)(=O)N2CCCCN3[C@@H](CO)[C@@H](c4ccc(-c5cccnc5)cc4)[C@@H]3C2)c1,-29.7,-27.5
C[C@@H]1CN([C@H](C)CO)C(=O)Cc2cc(NC(=O)Nc3ccc(F)cc3)ccc2O[C@@H]1CN(C)Cc1ccc(C(F)(F)F)cc1,-27.9,-26.5
C[C@H](NC(=O)[C@H]1[C@H](CO)[C@H]2Cn3c(ccc(-c4ccccc4)c3=O)[C@H]2N1C)c1ccccc1,-4.2,-2.8
COCC#Cc1cnc2c(c1)C(=O)N([C@@H](C)CO)C[C@H](C)[C@H](CN(C)C(=O)c1ccc3c(c1)OCO3)O2,24.6&16.9,-1.7&5.2
CC(C)NC(=O)N(C)C[C@@H]1Oc2ccc(NC(=O)Cc3ccccc3)cc2CC(=O)N([C@H](C)CO)C[C@@H]1C,6.6,5.4
CC(=O)Oc1ccccc1C(=O)OCO/N=[N+](\[O-])N1CCCC1,5.4,-3.7
O=C(C[C@H]1CC[C@H](NC(=O)c2ccc(F)cc2)[C@@H](CO)O1)NCCc1ccccc1,0.8,-1.4
O=C(C[C@@H]1C=C[C@H](NC(=O)c2ccncc2)[C@H](CO)O1)Nc1ccc(-c2ccccc2)cc1,-1.6,1.8
CCCC#Cc1ccc2c(c1)O[C@@H](CN(C)C(=O)c1ccccc1)[C@H](C)CN([C@@H](C)CO)S2(=O)=O,?,.
COc1ccc(S(=O)(=O)N(C)C[C@H]2OCCCC[C@H](C)Oc3ccc(NC(=O)Nc4ccc(C(F)(F)F)cc4)cc3C(=O)N([C@H](C)CO)C[C@H]2C)cc1,1.3,-1.1
C[C@@H]1CN([C@@H](C)CO)C(=O)c2cc(-c3cccc(C(=O)N(C)C)c3)cnc2O[C@@H]1CN(C)S(=O)(=O)c1ccccc1,9.3,13.2
CO[C@@H]1CN(C)C(=O)c2cc(NC(=O)c3ccccc3)ccc2OC[C@@H](C)N(C(=O)CN(C)C)C[C@@H]1C,-7.0,-0.3
C[C@@H]1CN([C@@H](C)CO)S(=O)(=O)c2ccc(C3=CCCCC3)cc2O[C@H]1CN(C)C(=O)Cc1ccccc1,?,.
C[C@@H]1CN([C@H](C)CO)C(=O)c2cc(NS(=O)(=O)c3ccccc3)ccc2O[C@@H](C)CCCCO[C@@H]1CN(C)C(=O)c1ccncc1,31.4,12.1
O=C(Nc1ccc2c(c1)OCO2)N[C@H]1C=C[C@@H](CC(=O)N2CCN(c3ccccc3)CC2)O[C@H]1CO,-1.9,7.8
C[C@@H]1CN([C@H](C)CO)C(=O)c2cccc(NC(=O)C3CCCCC3)c2O[C@@H]1CN(C)Cc1ccc2c(c1)OCO2,13.6,4.0
O=C(Nc1cc(F)ccc1F)N[C@H]1CC[C@@H](CCNC(=O)c2cnccn2)O[C@H]1CO,-6.1,1.1
O=C([C@@H]1[C@@H](CO)[C@@H]2Cn3c(cccc3=O)[C@@H]2N1Cc1cocn1)N1CCC(Cc2ccccc2)CC1,3.1,14.1
C[C@@H]1CCCCO[C@@H](CN(C)S(=O)(=O)c2cccs2)[C@@H](C)CN([C@H](C)CO)C(=O)c2cc(NC(=O)c3ccncc3)ccc2O1,-3.9,-17.9
C[C@H](CO)N1C[C@H](C)[C@H](CN(C)CC2CCCCC2)OCCCC[C@H](C)Oc2ccc(NC(=O)Nc3ccc(C(F)(F)F)cc3)cc2C1=O,27.8,1.6
C/C=C/c1ccc([C@@H]2[C@@H](CO)N(C(=O)CC)C23CN(S(C)(=O)=O)C3)cc1,0.3,5.9
C[C@H](CO)N1C[C@H](C)[C@H](CN(C)Cc2ccc(-c3ccccc3)cc2)Oc2ccc(NS(=O)(=O)c3ccc(F)cc3)cc2C1=O,-10.6,-7.3
CCC(=O)N(C)C[C@H]1Oc2cc(-c3ccncc3)ccc2S(=O)(=O)N([C@@H](C)CO)C[C@H]1C,13.1,4.3
CCCNC(=O)N1CC2(CCN(C(=O)Cc3cccnc3)CC2)c2c([nH]c3cc(OC)ccc23)[C@@H]1CO,14.8,4.9
COc1ccc(-c2ccc3c(c2)[C@H]2[C@H](CCN2C(=O)C2CCC2)[C@H](CO)N3C)cc1,-15.1,-5.7
CO[C@@H]1CN(C)C(=O)c2ccc(NC(=O)Nc3cccc(F)c3)cc2OC[C@H](C)NC[C@H]1C,-3.5,8.1
COc1cccc(NC(=O)C[C@H]2CC[C@H]3[C@@H](COc4ccc(NC(=O)c5ccccc5F)cc4C(=O)N3C)O2)c1,12.6,6.0
O=C(C[C@H]1CC[C@@H]2[C@H](COC[C@H](O)CN2C(=O)c2ccccc2)O1)NC1Cc2ccccc2C1,18.2,5.4
CO[C@@H]1CN(C)C(=O)c2ccc(NC(=O)Nc3cc(F)ccc3F)cc2OC[C@@H](C)N(C(=O)c2ccccn2)C[C@@H]1C,20.7,10.8
CC(=O)N(C)C[C@@H]1Oc2cc(C#Cc3ccncc3)ccc2S(=O)(=O)N([C@H](C)CO)C[C@@H]1C,-14.1,-2.1
O=C(c1cccc(F)c1)N1CCCCN2[C@H](CO)[C@H](c3ccc(-c4cccnc4)cc3)[C@@H]2C1,22.4,6.5
CCCC#Cc1ccc2c(c1)O[C@H](CN(C)C(=O)CC)[C@@H](C)CN([C@H](C)CO)S2(=O)=O,-12.3,-14.8
COc1ccc(NC(=O)N[C@H]2CC[C@@H](CCNC(=O)Nc3cc(F)ccc3F)O[C@H]2CO)cc1,-12.1,-10.1
N#C[C@@H]1[C@@H](c2ccccc2C2=CCCC2)[C@@H](CO)N1C(=O)NC1CCCC1,-15.7,1.3
CC(C)NC(=O)N[C@H]1C=C[C@@H](CC(=O)NC2Cc3ccccc3C2)O[C@H]1CO,0.0,3.7
C[C@@H]1CN([C@@H](C)CO)S(=O)(=O)c2ccc(-c3ccc(F)cc3)cc2O[C@@H]1CN(C)C(=O)c1ccccc1F,-22.9,-16.7
Cc1ccccc1-c1ccc([C@@H]2[C@H]3CN(S(C)(=O)=O)CCCCN3[C@H]2CO)cc1,-3.3,-3.9
C[C@@H]1CN([C@@H](C)CO)C(=O)c2cc(NC(=O)Nc3ccc4c(c3)OCO4)ccc2O[C@@H](C)CCCCO[C@@H]1CN(C)S(=O)(=O)c1ccccc1,21.1,17.7
CC(C)CC#Cc1cnc2c(c1)C(=O)N([C@@H](C)CO)C[C@@H](C)[C@@H](CN(C)C(=O)Cc1cccnc1)O2,-4.6,0.6
CN1c2ccc(Br)cc2[C@H]2[C@H](CCN2C(=O)Nc2cc(F)ccc2F)[C@H]1CO,4.8,3.6
O=C(C[C@@H]1CC[C@@H]2[C@H](COC[C@H](O)CN2C(=O)Nc2ccc(C(F)(F)F)cc2)O1)NCCc1ccncc1,-10.4,-10.8

# As entered above:
# Result of CC(C)CC#Cc1cnc2c(c1)C(=O)N([C@@H](C)CO)C[C@@H](C)[C@@H](CN(C)C(=O)Cc1cccnc1)O2 under Vaccinia stage Venus: 0.6
# Result of C[C@@H]1CN([C@@H](C)CO)S(=O)(=O)c2ccc(-c3ccc(F)cc3)cc2O[C@@H]1CN(C)C(=O)c1ccccc1F under Vaccinia stage: -22.9
# Result of COc1ccc(NC(=O)N[C@H]2CC[C@@H](CCNC(=O)Nc3cc(F)ccc3F)O[C@H]2CO)cc1 under Vaccinia stage Venus: -10.1
# Result of N#C[C@@H]1[C@@H](c2ccccc2C2=CCCC2)[C@@H](CO)N1C(=O)NC1CCCC1 under Vaccinia stage Venus: 1.3

# (more compounds)
SMILES,Vaccinia stage,Vaccinia stage Venus
COCC(=O)N1CC2(C1)[C@H](c1ccccc1)[C@H](CO)N2C(=O)c1ccncc1,2.7,5.7
Cc1noc(C)c1NC(=O)Nc1ccc2c(c1)C(=O)N([C@H](C)CO)C[C@H](C)[C@H](CN(C)Cc1ccc(C(F)(F)F)cc1)OCCCC[C@H](C)O2,?,.
C[C@H](CO)N1C[C@H](C)[C@H](CN(C)S(=O)(=O)c2ccccc2C#N)OCc2ccccc2-c2c(n(C)c3ccccc23)C1=O,-17.9,-10.5
COc1cccc(-c2cnc3c(c2)C(=O)N([C@H](C)CO)C[C@H](C)[C@H](CN(C)C(=O)CN(C)C)O3)c1,11.1,5.5
C[C@@H]1CCCCO[C@H](CN(C)C(=O)C2CCCCC2)[C@H](C)CN([C@@H](C)CO)C(=O)c2cc(NS(C)(=O)=O)ccc2O1,-2.2,7.9
C[C@H](CO)N1C[C@H](C)[C@@H](CN(C)C(=O)c2ccncc2)Oc2cc(C#CC3CC3)ccc2S1(=O)=O,3.0,-5.2
CN(C)C(=O)C[C@@H]1C[C@@H]2c3cc(NC(=O)c4ccc5c(c4)OCO5)ccc3O[C@@H]2[C@H](CO)O1,7.6,5.0
C[C@@H]1CN([C@@H](C)CO)C(=O)c2cc(NC(=O)c3ccccc3)ccc2O[C@@H](C)CCCCO[C@@H]1CN(C)Cc1ccc2c(c1)OCO2,?,.
CCCNC(=O)N[C@@H]1CC[C@H](CCn2cc(-c3cccc(F)c3)nn2)O[C@@H]1CO,10.5,10.4
C[C@@H]1CN([C@H](C)CO)C(=O)c2cc(NC(=O)Cc3ccccc3)ccc2O[C@@H]1CN(C)S(=O)(=O)c1cn(C)cn1,14.4,18.3
C[C@H](CO)N1C[C@H](C)[C@H](CN(C)Cc2ccc(Cl)c(Cl)c2)Oc2ccc(NC(=O)c3ccncc3)cc2CC1=O,-8.8,-8.6
C[C@@H]1CN([C@H](C)CO)C(=O)c2cc(C#C[C@@H](C)O)cnc2O[C@@H]1CN(C)C(=O)CC1CC1,8.4,13.8

# Part of the list above in a different format.
molecule | Vaccinia stage | Vaccinia stage Venus
C[C@@H]1CN([C@@H](C)CO)C(=O)c2cc(NC(=O)c3ccccc3)ccc2O[C@@H](C)CCCCO[C@@H]1CN(C)Cc1ccc2c(c1)OCO2 | ? | .
CCCNC(=O)N[C@@H]1CC[C@H](CCn2cc(-c3cccc(F)c3)nn2)O[C@@H]1CO | 10.5 | 10.4
C[C@@H]1CN([C@H](C)CO)C(=O)c2cc(NC(=O)Cc3ccccc3)ccc2O[C@@H]1CN(C)S(=O)(=O)c1cn(C)cn1 | 14.4 | 18.3
C[C@H](CO)N1C[C@H](C)[C@H](CN(C)Cc2ccc(Cl)c(Cl)c2)Oc2ccc(NC(=O)c3ccncc3)cc2CC1=O | -8.8 | -8.6

# (listing goes on)
SMILES,Vaccinia stage,Vaccinia stage Venus
CO[C@@H](CN(C)S(=O)(=O)c1ccc(C)cc1)[C@H](C)CN([C@@H](C)CO)S(=O)(=O)c1cccc(Cl)c1,?,.
CC(C)NC(=O)N(C)C[C@@H]1Oc2ccc(NC(=O)c3ccncc3)cc2C(=O)N([C@@H](C)CO)C[C@@H]1C,-3.7,-0.7
CCCNC(=O)N(C)C[C@@H]1Oc2ncc(C#CC(C)C)cc2C(=O)N([C@H](C)CO)C[C@@H]1C,1.6,-8.0
O=C(NC1CCCCC1)N1CC2(C1)[C@H](c1ccccc1)[C@@H](CO)N2S(=O)(=O)Cc1ccccc1,-15.0,-7.1
C[C@@H]1CCCCO[C@@H](CN(C)C(=O)Nc2ccccc2)[C@H](C)CN([C@H](C)CO)C(=O)c2cc(NC(=O)Nc3ccccc3)ccc2O1,-22.1,-20.0
COc1ccc(S(=O)(=O)N(C)C[C@H]2Oc3ccc(NS(=O)(=O)c4ccccc4)cc3CC(=O)N([C@@H](C)CO)C[C@H]2C)cc1,16.2,6.9
O=C(Nc1ccccc1F)N1C[C@@H]2[C@H](c3ccccc31)[C@@H](CO)N2C(=O)C1CC1,-10.3,-8.4
COc1ccc(S(=O)(=O)N[C@H]2CC[C@H](CC(=O)NCCc3ccncc3)O[C@@H]2CO)cc1,12.5,4.4
COc1cccc(NC(=O)N[C@H]2CC[C@H](CC(=O)Nc3ccc(-c4ccccc4)cc3)O[C@@H]2CO)c1,-15.4,-5.8
C[C@@H]1CN([C@H](C)CO)C(=O)c2cc(NC(=O)Nc3ccc(F)cc3)ccc2O[C@@H](C)CCCCO[C@H]1CN(C)Cc1ccc(C(=O)O)cc1,21.8,11.2
CC(C)CC#Cc1cnc2c(c1)C(=O)N([C@H](C)CO)C[C@@H](C)[C@H](CN(C)CC1CCOCC1)O2,-4.1,-4.8
C[C@H]1CN([C@@H](C)CO)C(=O)c2cc(NC(=O)CCCN(C)C)ccc2O[C@@H]1CN(C)Cc1ccc(Cl)c(Cl)c1,-0.8,-4.5
CCCNC(=O)N1CC2(CN(CC3CC3)C2)c2c([nH]c3cc(OC)ccc23)[C@@H]1CO,-5.2,-11.1
C[C@@H]1CCCCO[C@H](CN(C)Cc2ccc(C(F)(F)F)cc2)[C@@H](C)CN([C@H](C)CO)C(=O)c2cc(NC(=O)NC3CCCCC3)ccc2O1,-12.9,-5.1
O=C(C[C@H]1C[C@@H]2c3cc(NC(=O)Nc4ccccc4F)ccc3O[C@@H]2[C@@H](CO)O1)NCc1ccncc1,11.7,9.6
